CSC inhib: cancer stem cell viability inhibitors, primary screen, luminescence. inhibition, % at 7.5 µM. 300,000 tested, 1.1% active. cancer stem cell-like cells viability;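 active means mean at 75% or more and at least half the replicates too; tested in HMLE shEcad cells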;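 further: 0% = median of negative and 100% = median of positive control wells; the first replicate is given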
MT1-MMP act inh: blockers of MT1-MMP proenzyme processing, primary screen, HT1080 RFP-PRO-GFP cells, GFP/RFP fluorescence. Matrix metalloproteinase-14 (Homo sapiens), P50281. GFP/RFP ratio fluorescence, overnight; percent of plate control window, DMSO zero. GFP/RFP ratio change, % at 20 µM. 360,000 tested, 0.061% active. AID 651647, 2012;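 active means GFP/RFP ratio change of at least 30% with cell ATP level not reduced by more than half and red fluorescence within 50% of control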; further: strong numbers were not always called active
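Assay system – RFP-PRO-GFP reporter HT1080 cells · Compound dosing – single dose of 20 µM compound, 1% DMSO final · Incubation – overnight compound exposure at 37 °C · Measure – GFP/RFP fluorescence ratio · Benchmarks – DMSO wells and RFP-L50D-GFP cells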
PABP polyA inh: PABP poly(A) RNA binding inhibitors, primary screen, biochemical, fluorescence polarization, uHTS | Polyadenylate-binding protein 1 (Homo sapiens), P11940 | inhibition, % at 35 µM | 290,000 tested, 1% active;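 active means 50% or more with normal probe brightness, or confirmed in later tests; about a fifth of its hits are not listed in these tables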;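 further: calls also rest on retests at 20 µM and on dose response follow-up; controls were probe without protein and protein plus probe with vehicle; some compounds called inactive have numbers as strong as hits; many hits fall short of the cut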
Target sequence (P11940 whole entry, looked up): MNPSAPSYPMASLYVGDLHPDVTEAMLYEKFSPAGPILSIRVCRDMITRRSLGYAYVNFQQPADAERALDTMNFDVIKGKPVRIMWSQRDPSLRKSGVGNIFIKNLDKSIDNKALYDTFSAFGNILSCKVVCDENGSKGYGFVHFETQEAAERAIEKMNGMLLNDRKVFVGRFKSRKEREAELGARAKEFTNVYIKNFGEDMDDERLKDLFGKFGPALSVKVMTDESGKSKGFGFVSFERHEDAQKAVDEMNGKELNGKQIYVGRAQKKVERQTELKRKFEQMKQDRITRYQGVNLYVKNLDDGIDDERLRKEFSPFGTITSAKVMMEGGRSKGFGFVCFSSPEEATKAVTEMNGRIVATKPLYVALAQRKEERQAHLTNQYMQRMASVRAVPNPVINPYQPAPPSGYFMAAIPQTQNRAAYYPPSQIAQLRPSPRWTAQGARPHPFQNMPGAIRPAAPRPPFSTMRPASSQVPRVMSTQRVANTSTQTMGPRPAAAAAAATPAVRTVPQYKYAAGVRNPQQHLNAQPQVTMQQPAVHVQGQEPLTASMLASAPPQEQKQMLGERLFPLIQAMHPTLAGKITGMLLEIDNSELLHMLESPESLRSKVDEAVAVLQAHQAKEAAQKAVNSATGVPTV
Rce1 inh: yeast Rce1p protease inhibitors, primary screen, biochemical, fluorescence, cell-free homogeneous; calls only; yeast membranes, quenched prenylated peptide cleavage fluorescence; 290,000 tested, 0.27% active; CAAX prenyl protease 2 (Saccharomyces cerevisiae (strain ATCC 204508 / S288c)), Q03530; AID 2563, 2010;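 active means fall in fluorescence gain of 50% or more versus controls, with final raw signal at or below 3038400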;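 further: plate controls were neutral control wells for no effect and wells lacking membranes for full effect; tested at 10 µM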
Target sequence (Q03530 whole entry, looked up): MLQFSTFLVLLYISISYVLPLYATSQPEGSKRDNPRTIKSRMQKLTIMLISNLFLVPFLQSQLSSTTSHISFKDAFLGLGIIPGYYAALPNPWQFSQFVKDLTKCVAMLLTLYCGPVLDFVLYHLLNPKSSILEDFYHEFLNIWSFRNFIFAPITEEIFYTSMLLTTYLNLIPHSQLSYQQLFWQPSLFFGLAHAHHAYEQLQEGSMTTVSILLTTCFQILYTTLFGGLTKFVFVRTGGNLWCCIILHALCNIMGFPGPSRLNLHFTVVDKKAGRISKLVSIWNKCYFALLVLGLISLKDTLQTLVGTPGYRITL
eIF4H inh: human eIF4H binding inhibitors, primary screen, translation initiation inhibitor project, biochemical, uHTS, fluorescence polarization; Eukaryotic translation initiation factor 4H (Homo sapiens), Q15056; eIF4H fluorescence polarization binding assay; inhibition, % at 35 µM; 290,000 tested, 0.94% active; AID 2012, 2009;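 active means 50% or more with normal probe brightness, or confirmed in later tests; about a fifth of its hits are not listed in these tables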;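 further: calls also rest on retests at 20 µM and on dose response follow-up; 0% = protein and probe with vehicle and 100% = probe without protein; strong numbers were not always called active; many hits fall short of the cut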
HIV Env fusion: inhibitors of HIV-1 Env-driven cell-cell fusion, primary screen, HeLa-JRFL effector, CEM21 target cells, luciferase; inhibition, % at 12.3 µM; 360,000 tested, 1.1% active; AID 651610, 2012;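 active means mean replicate inhibition score of at least 50 and every replicate individually at or above 50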;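 further: 0% = plate neutral controls and 100% = maraviroc near 300 nM; one replicate is shown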
Yeast UUG start: modulators of yeast start codon fidelity, primary screen, whole organism, S. cerevisiae, single point, plate reader; S. cerevisiae UUG-firefly luciferase reporter, luminescence/redox ratio; activity score, % at 18.7 µM; 350,000 tested, 0.13% active; AID 602363, 2012;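 active means replicate mean at a twofold rise or more, about +100% in these data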;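 further: firefly luciferase made from a UUG start codon reports start codon fidelity; reporter light over untreated wells divided by growth signal over untreated wells; some hits fall short of that in this replicate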
MT1-MMP act inh RFP: second read-out of MT1-MMP act inh, no call of its own (marks repeat the call); RFP signal change, %; measured here: RFP expression control read;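 0 = vehicle wells; hits needed this value within 50% of zero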
* marks the source's active call; other numbers are inactive results. An excerpt, so the mix of outcomes need not match the whole.

Results for CCSc1nnc(-c2cnn(-c3ccccc3)c2-n2cccc2)n1C ?
CSC inhib: -17; MT1-MMP act inh: 6; PABP polyA inh: 11; Rce1 inh: inactive; eIF4H inh: 7; Yeast UUG start: 5; MT1-MMP act inh RFP: 2

How did O=C(CSc1nnc(-c2ccncc2)n1CC1CCCO1)Nc1ccccc1Cl (stereo not drawn) do in these assays?
CSC inhib: 3; MT1-MMP act inh: 1; PABP polyA inh: 0; Rce1 inh: inactive; eIF4H inh: 0; HIV Env fusion: 9; MT1-MMP act inh RFP: 5

Results for CC1=C(C(=O)OCc2ccccc2)C(c2ccc(Cl)cc2)NC(=O)N1C (stereo not drawn) ?
CSC inhib: 4; MT1-MMP act inh: -1; PABP polyA inh: -5; Rce1 inh: inactive; eIF4H inh: -2; HIV Env fusion: -7; Yeast UUG start: -3; MT1-MMP act inh RFP: -10

Results for CCCn1c(CCNC(=O)c2ccco2)nc2ccccc21 ?
CSC inhib: 0; MT1-MMP act inh: 0; PABP polyA inh: -1; Rce1 inh: inactive; eIF4H inh: -9; HIV Env fusion: -6; Yeast UUG start: -14; MT1-MMP act inh RFP: 2

What do the screens show for `O=C(NCCCN1CCC(Cc2ccccc2)CC1)c1ccc2nc(N3CCOCC3)sc2c1`?
CSC inhib: 15; MT1-MMP act inh: 4; PABP polyA inh: 0; Rce1 inh: inactive; eIF4H inh: -8; HIV Env fusion: 11; MT1-MMP act inh RFP: 0

Results for N#Cc1ccccc1S(=O)(=O)Nc1ccc2c(c1)C(=O)OC2 ?
CSC inhib: -11; MT1-MMP act inh: 0; PABP polyA inh: 4; Rce1 inh: inactive; eIF4H inh: 2; HIV Env fusion: -7; Yeast UUG start: -9; MT1-MMP act inh RFP: 3

What do the screens show for `CCc1nnc(NS(=O)(=O)c2ccc(NC(=O)c3cccc(OC)c3)cc2)s1`?
CSC inhib: -12; MT1-MMP act inh: -1; PABP polyA inh: -1; Rce1 inh: inactive; eIF4H inh: -2; HIV Env fusion: -8; Yeast UUG start: -9; MT1-MMP act inh RFP: 1

How did COc1ccc(N2CCN(C(=O)Cn3nnc(-c4ccccc4N)n3)CC2)cc1 do in these assays?
MT1-MMP act inh: -2; PABP polyA inh: 2; Rce1 inh: inactive; eIF4H inh: -12; HIV Env fusion: -1; MT1-MMP act inh RFP: 1

Results for COC(=O)[C@@H]1C[C@@]2(O)[C@@H](O)[C@@H](O)[C@@H](O)C[C@H]2N1CC(c1ccccc1)c1ccccc1 ?
CSC inhib: 1; MT1-MMP act inh: 4; PABP polyA inh: 3; Rce1 inh: inactive; eIF4H inh: -6; HIV Env fusion: 21; Yeast UUG start: -14; MT1-MMP act inh RFP: 1

How did O=c1c2[nH]c3ccc(F)cc3c2ncn1CCC1=CCCCC1 do in these assays?
CSC inhib: -7; MT1-MMP act inh: 1; PABP polyA inh: -7; Rce1 inh: inactive; eIF4H inh: -6; HIV Env fusion: -18; MT1-MMP act inh RFP: 5

Results for CN(C)C(=O)C(=O)c1cccn1-c1ccccc1C#N ?
CSC inhib: -14; MT1-MMP act inh: 6; PABP polyA inh: -1; Rce1 inh: inactive; eIF4H inh: -4; HIV Env fusion: -57; Yeast UUG start: -16; MT1-MMP act inh RFP: 5

Results for O=c1c2c3n(c(=S)nc2[nH]n1-c1ccccc1)CCCCC3 ?
CSC inhib: 4; MT1-MMP act inh: 0; PABP polyA inh: 8; eIF4H inh: 7; HIV Env fusion: -52; Yeast UUG start: -25; MT1-MMP act inh RFP: 2

How did COc1ccccc1OCc1ccc(C(=O)NCCN(C)C)o1 do in these assays?
CSC inhib: -5; MT1-MMP act inh: -2; PABP polyA inh: -4; Rce1 inh: inactive; eIF4H inh: -4; Yeast UUG start: -16; MT1-MMP act inh RFP: -2

Results for COc1ccc(NC(C)=O)cc1NC(=O)CN1CCN(c2ccccn2)CC1 ?
CSC inhib: -15; MT1-MMP act inh: -1; PABP polyA inh: -1; Rce1 inh: inactive; eIF4H inh: -4; Yeast UUG start: -17; MT1-MMP act inh RFP: 5

What do the screens show for `CCOc1ccc(NC(=O)N2CCC(n3nnc4cc(C)ccc43)CC2)cc1`?
CSC inhib: -1; MT1-MMP act inh: 0; PABP polyA inh: 0; Rce1 inh: inactive; eIF4H inh: 3; HIV Env fusion: -49; Yeast UUG start: -21; MT1-MMP act inh RFP: 0

How did CCn1c(CNC(=O)C(C)(C)C)nc2ccccc21 do in these assays?
CSC inhib: -15; MT1-MMP act inh: 8; PABP polyA inh: 8; Rce1 inh: inactive; eIF4H inh: 2; HIV Env fusion: -59; Yeast UUG start: -9; MT1-MMP act inh RFP: 5

How did c1coc(-c2nc(-c3ccncc3)no2)c1 do in these assays?
CSC inhib: 18; MT1-MMP act inh: 13; PABP polyA inh: 10; Rce1 inh: inactive; eIF4H inh: 7; Yeast UUG start: -9; MT1-MMP act inh RFP: 10

How did O=C(Nc1ccccn1)C1CCCN(c2ncnc3c2nc2n3CCCCC2)C1 (stereo not drawn) do in these assays?
CSC inhib: 39; MT1-MMP act inh: -8; PABP polyA inh: 1; Rce1 inh: inactive; eIF4H inh: -4; HIV Env fusion: 8; Yeast UUG start: 3; MT1-MMP act inh RFP: -3

What do the screens show for `CCCCCCCCCSc1n[nH]c(N)n1`?
CSC inhib: -10; MT1-MMP act inh: 5; PABP polyA inh: -3; Rce1 inh: inactive; eIF4H inh: -8; HIV Env fusion: -12; Yeast UUG start: -28; MT1-MMP act inh RFP: 7

How did COc1ccccc1NC(=O)C1CCCN(c2nc(C)cc(C)n2)C1 (stereo not drawn) do in these assays?
CSC inhib: -1; MT1-MMP act inh: 5; PABP polyA inh: -5; Rce1 inh: inactive; eIF4H inh: 2; HIV Env fusion: 17; MT1-MMP act inh RFP: 6

Results for CCOc1ccc(C(=S)N2CCCC2)cc1OCC ?
CSC inhib: -29; MT1-MMP act inh: -2; PABP polyA inh: 10; Rce1 inh: inactive; eIF4H inh: -2; HIV Env fusion: 20; Yeast UUG start: -22; MT1-MMP act inh RFP: 1

How did COc1cc(/C=N/NC(=O)Cc2ccccc2)ccc1Oc1ccc([N+](=O)[O-])cc1[N+](=O)[O-] do in these assays?
CSC inhib: 34; MT1-MMP act inh: 2; PABP polyA inh: 1; eIF4H inh: -2; HIV Env fusion: -19; MT1-MMP act inh RFP: -12

How did CC(=O)c1c(C)[nH]c(C(=O)NNC(=O)c2ccc(Br)cc2)c1C do in these assays?
CSC inhib: -2; MT1-MMP act inh: 2; Yeast UUG start: -19; MT1-MMP act inh RFP: -1

What do the screens show for `CC(C)(C)NC(=O)C1CC1(c1ccccc1)c1ccccc1` (stereo not drawn)?
CSC inhib: -8; MT1-MMP act inh: -1; PABP polyA inh: 2; Rce1 inh: inactive; eIF4H inh: 3; HIV Env fusion: -4; Yeast UUG start: -15; MT1-MMP act inh RFP: -7

Results for COc1cccc(NC(=O)CSc2nc3ccccc3nc2N2CCOCC2)c1 ?
CSC inhib: -2; MT1-MMP act inh: -1; PABP polyA inh: 3; Rce1 inh: inactive; eIF4H inh: -5; HIV Env fusion: 26; Yeast UUG start: -13; MT1-MMP act inh RFP: -1

What do the screens show for `CC(C)CCNC(=O)C(c1ccco1)N(Cc1cccs1)C(=O)Cn1nnc2ccccc21` (stereo not drawn)?
MT1-MMP act inh: -2; PABP polyA inh: 1; Rce1 inh: inactive; eIF4H inh: -2; Yeast UUG start: -1; MT1-MMP act inh RFP: -19

Results for CCOc1ccc(N2C(=O)/C(=C/c3ccco3)N(C)C2=S)cc1 ?
CSC inhib: 0; MT1-MMP act inh: 0; PABP polyA inh: -7; Rce1 inh: inactive; eIF4H inh: 45; HIV Env fusion: 3; Yeast UUG start: -10; MT1-MMP act inh RFP: 3

Results for COc1ccc(/C=N/Nc2ncc(C(F)(F)F)cc2Cl)cc1OC ?
MT1-MMP act inh: 4; PABP polyA inh: 5; Rce1 inh: inactive; eIF4H inh: -24; HIV Env fusion: 0; MT1-MMP act inh RFP: 2

What do the screens show for `O=C(COC(=O)C1COc2ccccc2O1)Nc1ccccc1OC(F)F` (stereo not drawn)?
CSC inhib: -28; MT1-MMP act inh: -5; Yeast UUG start: 0; MT1-MMP act inh RFP: -1

Results for CC(CN(C)C)CN1c2ccccc2Sc2ccccc21 (stereo not drawn) ?
CSC inhib: 7; MT1-MMP act inh: -9; HIV Env fusion: -15; Yeast UUG start: -38; MT1-MMP act inh RFP: -9

A draw from above in order of SMILES length, low to high:
How did c1coc(-c2nc(-c3ccncc3)no2)c1 do in these assays?
CSC inhib: 18; MT1-MMP act inh: 13; PABP polyA inh: 10; Rce1 inh: inactive; eIF4H inh: 7; Yeast UUG start: -9; MT1-MMP act inh RFP: 10

Results for CC(CN(C)C)CN1c2ccccc2Sc2ccccc21 (stereo not drawn) ?
CSC inhib: 7; MT1-MMP act inh: -9; HIV Env fusion: -15; Yeast UUG start: -38; MT1-MMP act inh RFP: -9

How did CCn1c(CNC(=O)C(C)(C)C)nc2ccccc21 do in these assays?
CSC inhib: -15; MT1-MMP act inh: 8; PABP polyA inh: 8; Rce1 inh: inactive; eIF4H inh: 2; HIV Env fusion: -59; Yeast UUG start: -9; MT1-MMP act inh RFP: 5

What do the screens show for `CC(C)(C)NC(=O)C1CC1(c1ccccc1)c1ccccc1` (stereo not drawn)?
CSC inhib: -8; MT1-MMP act inh: -1; PABP polyA inh: 2; Rce1 inh: inactive; eIF4H inh: 3; HIV Env fusion: -4; Yeast UUG start: -15; MT1-MMP act inh RFP: -7

What do the screens show for `CC(C)CCNC(=O)C(c1ccco1)N(Cc1cccs1)C(=O)Cn1nnc2ccccc21` (stereo not drawn)?
MT1-MMP act inh: -2; PABP polyA inh: 1; Rce1 inh: inactive; eIF4H inh: -2; Yeast UUG start: -1; MT1-MMP act inh RFP: -19

More compounds
How did Cc1noc2c1C(c1ccc(N(C)C)cc1)C1=C(CC(C)(C)CC1=O)N2 (stereo not drawn) do in these assays?
CSC inhib: -14; MT1-MMP act inh: -1; PABP polyA inh: 12; Rce1 inh: inactive; eIF4H inh: 5; Yeast UUG start: 9; MT1-MMP act inh RFP: -4

How did CC1c2[nH]c3ccccc3c2CCN1C(=O)Nc1ccccc1 (stereo not drawn) do in these assays?
CSC inhib: -6; MT1-MMP act inh: -3; PABP polyA inh: 16; Rce1 inh: inactive; eIF4H inh: -7; Yeast UUG start: -8; MT1-MMP act inh RFP: -3

How did O=C(O)CCSc1nc2ccccc2c(=O)[nH]1 do in these assays?
CSC inhib: -8; MT1-MMP act inh: -5; PABP polyA inh: -5; Rce1 inh: inactive; eIF4H inh: -4; Yeast UUG start: -8; MT1-MMP act inh RFP: 3

How did O=C(c1ccc(=O)[nH]n1)N1CCN(S(=O)(=O)c2ccc3ccccc3c2)CC1 do in these assays?
CSC inhib: -9; MT1-MMP act inh: 1; PABP polyA inh: 3; Rce1 inh: inactive; eIF4H inh: 0; HIV Env fusion: 21; Yeast UUG start: -5; MT1-MMP act inh RFP: -12

Results for COC(=O)c1c(NC(=O)CCl)sc(C(=O)N2CCOCC2)c1C ?
CSC inhib: -9; MT1-MMP act inh: 3; PABP polyA inh: 3; Rce1 inh: inactive; eIF4H inh: 2; HIV Env fusion: 17; Yeast UUG start: -8; MT1-MMP act inh RFP: -2
